# HIV TAR-Tat: HIV-1 TAR-Tat binding disruption | HIV-1 TAR RNA, Tat peptide displacement FRET; active compounds read high | z-score (test concentration not listed) | 0.6% of 100,000 active | AID 1259389;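 note: score is relative to mean and SD of negative controls; some compounds called inactive have numbers as strong as hits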
# CDC25B CDK2 inh: human CDC25B-CDK2/CyclinA binding inhibition. z-score (concentration not given with the values). 0.72% of 94,000 active. AID 1259370. HTRF CDC25B-CDK2/CyclinA binding, anti-His/anti-Flag; active compounds read high;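 note: score is relative to mean and SD of negative controls; strong numbers were not always called active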
# * hit, by the source's call; / = not tested or not shown.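 Rule for the calls: active = z-score from 3 up in half or more of its runs; inactive = the rest.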
mol	HIV TAR-Tat	CDC25B CDK2 inh
COc1ccc(Nc2nc(N)nc(CN3CCOCC3)n2)cc1	1.1	0.92
Cc1cc(Cl)ccc1OCc1nc(-c2ccc3c(c2)nc(C)c(=O)n3C)no1	-1.2	/
COCCNC(=O)c1c(NC(=O)c2snnc2C)sc2c1CCCC2	1.5	-1.1
COC(=O)C1=C(C)NC2=C(C(=O)CCC2)C1c1cccc(Br)c1 (stereo not drawn)	-1.7	-0.93
CCc1nc(C)cn1S(=O)(=O)c1cc(OC)ccc1OC	0.49	0.4
O=C1CC(C(=O)Nc2nccs2)C(c2ccccc2)O1 (stereo not drawn)	/	-1.6
CCOc1ccc2nc(N3CCCC(C(=O)N4CCC(C(N)=O)CC4)C3)sc2c1 (stereo not drawn)	0.7	-3.9
O=S(=O)(Nc1ccc(Br)cc1)c1cccc2cccnc12	/	-1.1
C=CCN1C(=O)/C(=C/c2ccc(O)c(OC)c2)S/C1=N\c1nnc(CC)s1	/	-3.3
CCc1nc(-c2csc(S(=O)(=O)N(CC)c3ccccc3)c2)no1	1.4	/
COc1cc(NC(=O)C2=CSCCO2)c(Cl)cc1C(=O)NCc1ccco1	0.34	/
Cc1cc(Nc2nn(-c3ccccc3)c(=O)c3ccccc23)n[nH]1	2.3	/
Cc1ccc(S(=O)(=O)c2cn(C)c3cc(N4CCOCC4)c(F)cc3c2=O)c(C)c1	-0.86	/
CCOC(=O)c1c(C)[nH]c(C)c1S(=O)(=O)NCC(=O)N(C)C1CCCCC1	-0.51	/
CS(=O)(=O)n1nc(-c2cccnc2)nc1NCc1ccccc1	-0.64	-0.22
COC(=O)C1C(=O)C2=C(CC1C)NC(C)=C(C(=O)OC1CCCCC1)C2c1cc(OC)ccc1OC (stereo not drawn)	0.39	-0.09
CCS(=O)(=O)N1CCCc2ccc(NS(=O)(=O)c3cccc(Cl)c3)cc21	-0.28	/
COc1ccc(CC(=O)c2ccc(O)cc2O)cc1	3.9	/
C=CCn1c(=S)[nH]c2sc3c(c2c1=O)CC(C)(C)OC3	/	-2.3
O=C(c1cc(-c2ccccc2)on1)N(Cc1ccccc1)Cc1ccco1	1.6	-0.92
N#Cc1cc2c(=O)n3ccccc3nc2n(Cc2ccc(F)cc2)c1=O	-2	-0.95
COc1ccc(CNCc2cc(Br)ccc2OC)cc1	0.67	0
Cc1c(C(=O)NC2CCCC2)oc2c1-c1[nH]ncc1CC2	-0.21	-0.26
Cc1cc(=O)n(-c2ccc(S(=O)(=O)O)cc2)[nH]1	/	-4.5
O=S(=O)(c1ccccc1)c1nnn2c1nc(NCc1ccc(Cl)cc1)c1sccc12	-0.1	/
CCN(CC)S(=O)(=O)c1ccc(Br)c2nsnc12	0.66	-1.8
CN1c2ccccc2-c2nc(SCC(=O)Nc3ccc(Br)cc3)ncc2S1(=O)=O	1.1	/
CCCC(=O)N(c1ccc(OC)cc1)C1C=CS(=O)(=O)C1 (stereo not drawn)	-0.63	-0.88
CCc1cc(=O)[nH]c(Nc2ccccc2)n1	-0.13	-1.9
N#Cc1nc(-c2ccc(COc3ccc(Cl)cc3)o2)oc1N1CCCC1	-0.73	-0.48
COCCNc1c(-c2ccc3c(c2)OCC(=O)N3)c(=O)c1=O	0.27	/
NC(=O)c1ccc(S(=O)(=O)N2CCOCC2)cc1	/	-0.1
Cc1ccc(-c2nonc2NC(=O)CC(C)C)cc1C	0.12	-0.55
CCCCCCc1c(C)c2ccc(OCC(=O)O)c(C)c2oc1=O	/	1.5
CC(C)C1c2cccn2CCN1C(=O)Nc1ccccc1F (stereo not drawn)	-0.16	/
Cc1ccc2cc(CN(c3ccccc3)S(C)(=O)=O)c(=O)[nH]c2c1	0.64	-2.2
COCCNc1oc2c(c1-c1ccc(C)cc1)c(=O)oc1ccc(C)cc12	0.49	/
NC(=O)c1cc(S(=O)(=O)NCCC2=CCCCC2)cs1	2.2	/
O=C(CC1Sc2ccccc2NC1=O)Nc1ccc(F)c(Cl)c1 (stereo not drawn)	1.1	-1
CCOC(=O)c1sc(N2C(=O)c3ccccc3C2=O)c(C(=O)OCC)c1C	/	-0.34
Cc1csc(NC(=O)CCc2nnc3ccc(N4CCC(C)CC4)nn23)n1	-0.53	/
COc1ccccc1C1=NOC(Cn2c(=O)c3c(ncn3C)n(C)c2=O)C1 (stereo not drawn)	2	-2
CN1CCN(Cc2nc3c(c(=O)n(C)c(=O)n3C)n2Cc2ccc(Cl)cc2)CC1	2.6	-1.5
O=S(=O)(NCCS(=O)(=O)N1CCN(c2ccccc2)CC1)c1ccc(Cl)cc1	0.7	/
COc1ccc(C2N(c3ccc(SC)cc3)C(=O)N3CCCN23)cc1 (stereo not drawn)	1.5	0.24
CC1SC2(C(=O)Nc3ccccc32)N(c2ccc(Br)cc2)C1=O (stereo not drawn)	/	-0.78
COc1cc(-c2cc(C(=O)O)c3c(-c4ccc(Br)cc4)[nH]nc3n2)ccc1O	4.6	/
Fc1ccc(-c2csc3ncnc(NCCCN4CCN(c5ccc(F)cc5)CC4)c23)cc1	0.93	/

# A second format for part of the listing above:
# Below each SMILES: HIV TAR-Tat | CDC25B CDK2 inh
O=S(=O)(Nc1ccc(Br)cc1)c1cccc2cccnc12
  / | -1.1
Cc1c(C(=O)NC2CCCC2)oc2c1-c1[nH]ncc1CC2
  -0.21 | -0.26
CCCC(=O)N(c1ccc(OC)cc1)C1C=CS(=O)(=O)C1 (stereo not drawn)
  -0.63 | -0.88

# Continuation.
mol	HIV TAR-Tat	CDC25B CDK2 inh
Cc1cc(C)nc(Nc2ncc(O)n2-c2ccc(C)c(C)c2)n1	-0.63	-0.69
CCC(Cn1nnc2ccccc2c1=O)NC(=O)Nc1cc(C)cc(C)c1 (stereo not drawn)	2.6	-0.47
CCN(CC)C(=O)C1CCN(c2ccc(-c3cccs3)nn2)CC1	0.49	/
CCCN(CCC)c1c(NC2CCN(C(=O)OCC)CC2)c(=O)c1=O	0.24	-0.78
CCOC(=O)c1sc(N2CCN(c3ccccc3)CC2)nc1N	-1.6	0.38
C=CCN(C(=O)c1cc(OC)cc(OC)c1)c1nnc(-c2ccncc2)s1	/	-0.78
COc1ccc(OC)c(C2CC(c3c(O)n(C)c(=O)n(C)c3=O)=NN2C)c1 (stereo not drawn)	0.61	-1.5
COc1ccc(-c2csc(NCc3ccco3)n2)cc1OC	-2.8	-2.6
Cc1ccc(CN2C(=O)C(O)(c3c(C)[nH]c4ccccc34)c3ccccc32)cc1 (stereo not drawn)	0.68	-0.44
CC(C)CCNC(=O)C1c2c(n(C)c3ccccc23)SCC(=O)N1C1CCCCC1 (stereo not drawn)	2.2	/
Cc1nnsc1C(=O)N=S(C)(=O)c1ccccc1 (stereo not drawn)	/	-1.1
CC(Nc1nc(-c2ccccc2O)nc2ccccc12)c1ccccc1 (stereo not drawn)	/	-0.01
CCOc1ccc(OCC)c(NS(=O)(=O)c2c(C(=O)OC)sc3ccccc23)c1	-1.1	/
CCN1CCN(C(=O)Cn2ncc3c4ccccc4n(Cc4c(C)cc(C)cc4C)c3c2=O)CC1	0.86	-1.7
O=c1ccc(-c2ccc(S(=O)(=O)NCC3CCN(CCc4cccs4)CC3)s2)n[nH]1	-3.7	/
CS(=O)(=O)Nc1ccccc1C(=O)OCc1cc(=O)n2nc(C3CCCCC3)sc2n1	-1.8	/
Cc1cc(=O)n2nc(-c3cccs3)nc2n1CC(=O)Nc1nccs1	1.2	0.29
O=C(O)c1cccc2cccc(C(=O)O)c12	/	-1.3
COc1ccc(-n2nnc(S(=O)(=O)c3ccc(C(C)(C)C)cc3)c2C)cc1	1.1	0.47
COc1ccc(/C(O)=C2\C(=O)C(=O)N(Cc3cccnc3)C2c2cccc(Oc3ccccc3)c2)cc1 (stereo not drawn)	0.12	-2.5
Nc1nc(NCCc2ccccc2)nc(N2CCCC2)c1[N+](=O)[O-]	0.17	/
N#C/C(=C\c1ccccn1)c1ccc(NC(=O)c2ccc(Cl)cc2)cc1	/	-0.96
Cc1[nH]n2c(=O)cc(CSc3nnnn3-c3ccccc3)nc2c1-c1ccc(Cl)cc1	24*	-2.2
CCOC(=O)c1nc(N2CCN(c3ccc(Cl)cc3)CC2)c2c(C)noc2n1	0.79	/
Cc1ccc(S(=O)(=O)NC2c3cccc4cccc(c34)C2Sc2ncccn2)cc1 (stereo not drawn)	-0.09	-1.6
CN(C)CC(O)Cn1c2ccc(Br)cc2c2cc(Br)ccc21 (stereo not drawn)	/	-0.35
CCC(C)NC(=O)c1sc2ncccc2c1-n1cccc1 (stereo not drawn)	-0.33	/
CC1CCN(c2ncc3c(n2)CCN(Cc2ccc(F)cc2F)C3)CC1	-0.85	/
CN1CCc2c(sc3c2C(=O)NC(c2ccc(Cl)cc2)N3)C1 (stereo not drawn)	-11	-0.94
Cc1cc(/C=c2/sc3nc4ccccc4n3c2=O)c(C)n1-c1ccc(Cl)cc1	/	-3.6
O=C1c2[nH]nc(-c3ccccc3O)c2C(c2cccc(Oc3ccccc3)c2)N1CC1CCCO1 (stereo not drawn)	0.58	0.66
O=C(c1cccs1)C(O)c1cccs1 (stereo not drawn)	-0.77	13*
COc1ccc(-c2nc3c4cnn(-c5ccccc5F)c4ncn3n2)cc1	0.18	-1.2
Cc1cc2n(n1)CCC(=O)N2CC(=O)NCCCN1CCN(C2CCCCC2)CC1	-0.34	/
O=C1C2CCCN2C(c2ccc(Cl)cc2)N1c1cccc(Cl)c1 (stereo not drawn)	1.4	-1.2
CCCCCn1c(N2CCCCCC2)nc2c1c(=O)[nH]c(=O)n2C	/	-1.2
C=CCn1c(COc2ccccc2)n[nH]c1=S	/	-0.27
COc1cc(S(=O)(=O)Nc2ccccn2)ccc1Cl	/	0.27
N#Cc1c(-n2ccnc2)cccc1-n1ccnc1	/	-1.7
O=C(NCCOCCn1c(=O)oc2ccccc21)Nc1ccc(F)cc1	0.81	-1.1
Cc1[nH]c(=O)[nH]c(=O)c1S(=O)(=O)N1CCN(C2CCCCC2)CC1	1.6	/
Cn1ccnc1SCC(=O)Nc1nc(-c2ccc(Cl)cc2)cs1	-2.5	-1.2
CC(C)CN(CC(C)C)CN1C(=O)c2ccccc2C1=O	/	0.44
Cc1ccc(CNc2nc3ccc(C)cc3n3nnnc23)cc1	-0.28	0.01
CCOc1cccc2c1OC(c1cc(OC)c(OC)c(OC)c1)N1N=C(c3cccnc3)CC21 (stereo not drawn)	/	-3.4
O=C(CSc1nc2c(sc3ccccc32)c(=O)n1CC1CCCO1)NC1CCCCC1 (stereo not drawn)	/	-2.5
COC(=O)c1c(NC(=O)c2cc(=O)c3cc(Cl)ccc3o2)sc2c1CCCC2	1.6	-1.6
O=S(=O)(Nc1ccc(-c2ccc(N3CCCC3)nn2)cc1)c1ccc(Br)cc1	0.71	/
Cn1c(-c2nnc(SCC(=O)N3CCN(c4ccccc4)CC3)o2)cc2ccccc21	1.2	-1.4
CS(=O)(=O)N1CCc2cc(S(=O)(=O)NCc3ccc(Cl)cc3)ccc21	1.5	/
NC(=O)c1c(NC(=O)c2ccc(F)cc2)sc2c1CCCC2	2.6	-8.6
Cc1cccc(-c2nnc(-c3ccccc3)o2)c1	0	-0.78
O=c1c(-c2ccc(Cl)cc2)c(N2CCCC3CCCCC32)c1=O (stereo not drawn)	0.11	/
CCCOC(=O)C1=C(C)OC23OC(N)=C(C#N)C12C(=O)c1ccccc13 (stereo not drawn)	/	-1.7
O=C1c2ccc(Cl)c3c(N4CCSCC4)ccc(c23)C(=O)N1c1ccccc1	/	0.66
COc1ccc(OCC(O)CN2CCC(CN3C(=O)c4cccc5cccc(c45)C3=O)CC2)cc1 (stereo not drawn)	/	-1.6

# Taken from the listing (five entries):
mol	HIV TAR-Tat	CDC25B CDK2 inh
Cn1c(-c2nnc(SCC(=O)N3CCN(c4ccccc4)CC3)o2)cc2ccccc21	1.2	-1.4
CS(=O)(=O)N1CCc2cc(S(=O)(=O)NCc3ccc(Cl)cc3)ccc21	1.5	/
NC(=O)c1c(NC(=O)c2ccc(F)cc2)sc2c1CCCC2	2.6	-8.6
Cc1cccc(-c2nnc(-c3ccccc3)o2)c1	0	-0.78
O=c1c(-c2ccc(Cl)cc2)c(N2CCCC3CCCCC32)c1=O (stereo not drawn)	0.11	/

# Additional compounds:
mol	HIV TAR-Tat	CDC25B CDK2 inh
CCOC(=O)c1c(C)oc2ncnc(NC(CC)CN3CCOCC3)c12 (stereo not drawn)	0.46	/
COCCCN1C(=O)c2[nH]nc(-c3ccccc3O)c2C1c1cccc(OCc2ccccc2)c1 (stereo not drawn)	0.8	1.6
O=C(NCCCN1CCCC1=O)c1cnn(-c2ccccc2)c1-n1cccc1	-0.26	-1.4
CCN(CC)S(=O)(=O)c1ccc2c(c1)nc(CN(C)S(=O)(=O)c1ccc(C)c(C)c1)n2C	1.3	/
O=C1c2cccnc2C(Nc2ccc(Cl)cc2)N1c1ccccc1 (stereo not drawn)	0.86	/
Cc1cccc(C2CC(=O)Nc3c2cnn3-c2nc3ccccc3s2)c1 (stereo not drawn)	0.11	/
O=C(c1ccc2c(c1)OCCO2)N1CCN(c2ncccn2)CC1	1	/
C=CCN(Cc1nc(-c2cccc(C)c2)no1)S(=O)(=O)c1ccc(C)cc1	1.7	0.81
O=S(=O)(NCCc1nnc2ccc(SCc3c(F)cccc3Cl)nn12)c1ccccc1	1.4	/
O=c1nc(-c2ccccc2)c2ccccc2[nH]1	/	-1.1
C=C(C)C1Cc2c(ccc(C(=O)O)c2O)O1 (stereo not drawn)	0.56	/
